2A Renilla: lowers the Renilla signal of an FMDV 2A StopGo reporter; HEK cells with a luciferase reporter of 2A StopGo recoding; Potency, µM (top dose mostly 57.5 µM), inactives show top-dose signal change, negative = less light; actives 0.32% (n = 120,000); AID 1745857; active means well fitted falling curve with a large enough effect; inconclusive means small, poorly fitted or top-dose-only effect; inactive means no such curve, though single readings can be large or run the other way; also: nearly all actives have a fitted effect of over 55% in size; overnight with compound
2A firefly: lowers the firefly signal of an FMDV 2A StopGo reporter. AID 1745856. Potency, µM (doses to about 57.5 µM), without a hit: at the highest dose signal change, negative = less light. actives 0.23% (n = 120,000). HEK cells with a luciferase reporter of 2A StopGo recoding; active = well fitted falling curve with a large enough effect; inconclusive = small, poorly fitted or top-dose-only effect; inactive = no such curve, though single readings can be large or run the other way; also: nearly all actives have a fitted effect of over 60% in size; overnight with compound
Active calls of the source: *; ? = inconclusive; & = joins results of further samples; [ ] = another dose, or the depositor's remark. % is scaled to controls: 0 for no effect and ±100 for the full control effect; potency is read from the fitted curve at half-maximal effect. Only part of the results is shown (hit frequency here may not be typical).

SMILES	2A Renilla	2A firefly
COc1cccc(C2OCC(C)(C)n3c(-c4ccccc4)c4c(=O)n(C)c(=O)n(C)c4c32)c1O (stereo not given)	5.8%	5.1%
COc1ccc(-c2nc(-c3ccccc3OCC(=O)N3CCCC(C)C3)no2)cc1 (stereo not given)	94.6%[activator]	159.6%[activator]
Cc1ccc(OCC(O)Cn2c(C)cc(=O)n3ncnc23)cc1 (stereo not given)	3.6%	13.7%
Cc1ccc(N2CC(C(=O)Nc3ccc(Br)cc3)CC2=O)cc1 (stereo not given)	-15.7%	-18.8%
FC(F)(F)c1cc(-c2cccs2)nc2c(-c3ccccc3)cnn12	7.7%	3.9%
CCOC(=O)c1c(NC(=O)c2ccc(OC)c(OC)c2)sc2c1CCCCC2	-9.2%	-9.3%
CCN(C(=O)Cn1nc(Cc2cccnc2)c2ccccc2c1=O)c1ccc(OC)cc1	15.9%	-4.0%
CC1=C(c2ccc(C)cc2)S(=O)(=O)N(Cc2ccc(C(=O)NCc3ccccc3)cc2)C1=O	-1.2%	-9.0%
O=C(NCCc1ccncc1)c1ccc(F)cc1	3.8%	0.0%
Cc1cc2c(cc1C)NC(CC(=O)Nc1ccccc1C(F)(F)F)C(=O)N2 (stereo not given)	-9.4%	43.3%[activator]
N#Cc1ccccc1CN1CCN(c2ccccc2)CC1	7.2%	0.0%
CCOC(=O)C1C(=O)C=C(c2ccc(C)cc2)CC1c1cccc(F)c1 (stereo not given)	30.7%[activator]	17.5%
O=C(CSc1nc2ccccc2o1)OCC(=O)c1ccc(-c2ccccc2)cc1	-6.8%	86.3%[activator]
CCn1c(CCC(=O)Nc2ccccc2Cl)nnc1SCc1nc2ccccc2c(=O)[nH]1	-5.3%	2.6%
C/C(=N\NC(=O)C1CC1)c1ccco1	-5.0%	20.1%
CCOc1c(CN)cccc1OC	-6.4%	2.7%
O=C(/C=C/c1ccc(Cl)cc1)Nc1cccc(OC(F)F)c1	?	29.1%
COc1ccc(C)cc1NC(=O)c1nc2ccccc2nc1N1CCCC1	16.5%	9.7%
COc1ccc(S(=O)(=O)NCCSc2nnnn2-c2ccccc2)cc1OC	149.5%[activator]	11.9%
CC/C=C(\C(=O)N[C@@H]1C(=O)N2C(C(=O)OCOC(=O)C(C)(C)C)=C(COC(N)=O)CS[C@H]12)c1csc(N)n1	-6.2%&-9.9%	-13.3%

Part of the list above in a different format:
SMILES,2A Renilla,2A firefly
CC/C=C(\C(=O)N[C@@H]1C(=O)N2C(C(=O)OCOC(=O)C(C)(C)C)=C(COC(N)=O)CS[C@H]12)c1csc(N)n1,-6.2%&-9.9%,-13.3%
Cc1ccc(OCC(O)Cn2c(C)cc(=O)n3ncnc23)cc1 (stereo not given),3.6%,13.7%
O=C(NCCc1ccncc1)c1ccc(F)cc1,3.8%,0.0%

Going on with the list.
SMILES	2A Renilla	2A firefly
CC1=C(C#N)C(c2ccccc2C)C(C#N)=C(C)N1	-4.4%	-17.7%
COc1ccccc1CCNC(=O)C1CCN(c2nnc(-n3cccc3CNc3ccc(C)cc3)s2)CC1	-7.6%	-6.9%
COc1ccc(-c2cc(C(F)(F)F)nc(SCCC(=O)Nc3c(C)cccc3C)n2)cc1	-5.8%	3.6%
Cn1ncc2c(NCc3ccc(F)cc3)ncnc21	4.1%	30.6%[activator]
COc1ccc(N2CCN(S(=O)(=O)CCNC(=O)C(c3ccccc3)c3ccccc3)CC2)cc1	5.6%	0.8%
COc1cc(C(=O)Nc2nnc(C3CC3)s2)cc(Cl)c1OCCC(C)C	-10.1%	1.9%
COc1ccc(C(=O)Nc2nnc(SCc3cc(=O)c4cc(C)ccc4[nH]3)s2)cc1OC	-2.8%	-7.3%
COc1ccc(NC(=O)C2=CC(c3ccco3)=NS(=O)(=O)N2C)cc1OC	29.4%	6.5%
CCN(CC(=O)Nc1c(Cl)cccc1Cl)C(=O)c1ccc(-n2cccc2)cc1	8.4%	6.9%
NC(N)=N/N=C/c1cccc([N+](=O)[O-])c1	7.9%	25.3%
CN(CCCc1ccccc1)CC(=O)NC(C)(C#N)C1CC1 (stereo not given)	8.9%	1.0%
CCC(C)NC(=O)c1ccc2c(=O)n3c(nc2c1)CCCCC3 (stereo not given)	-12.5%	137.1%[activator]
COc1cc2ncnc(N3CCN(c4ccc(F)cc4)CC3)c2cc1OC	3.1%	9.8%
O=C(CSc1ccc2ccccc2c1)Nc1ccc2c(c1)OCCCO2	-10.2%[1.06 µM]	0.0%
O=c1c2cc([N+](=O)[O-])ccc2ncn1Cc1coc(-c2cccs2)n1	10.7%	0.0%
Cc1cccc(NC(=O)CSc2nnc(-c3cccs3)o2)c1	12.1%	174.9%[activator]
COc1ccccc1OCC(=O)Nc1c(C(=O)c2ccc(C)cc2)oc2ccccc12	0.6%	-0.9%
O=C(COC(=O)C1CC2CCCC(C1)C2=O)Nc1ccc([N+](=O)[O-])cc1C(F)(F)F (stereo not given)	3.2%	0.0%
Cc1ccc(Nc2c(-c3ccsc3)nc3c(C)cccn23)cc1	-12.9%	2.0%
CCc1nc(NCCN(CC)CC)c(C#N)c2c1CCCC2	-19.2%	-5.1%
Cc1cc(C)c(Cn2c3ccccc3c3cnn(CC(=O)NCCCc4ccccc4)c(=O)c32)c(C)c1	-4.1%	7.0%
Cc1ccc(CNC(=O)c2ccc(N3CCOCC3)c(NC(=O)Nc3cc(F)ccc3F)c2)cc1	181.9%[activator]	0.0%
CC(NC(=O)Cn1cc(C(=O)c2ccccc2)c2ccccc21)c1ccccc1 (stereo not given)	119.1%[activator]	6.9%
COc1ccc(Br)cc1CNC12CC3CC(CC(C3)C1)C2	-4.7%	-9.8%
COc1ccc(S(=O)(=O)NCCS(=O)(=O)N2CCN(c3ccccc3F)CC2)cc1	102.8%[activator]	-1.5%
CC(C)CCNCc1ccncc1	0.4%	-12.9%
O=C(NCc1cccnc1)c1nn(-c2ccc(Cl)cc2)nc1CO	-8.6%	-13.6%
COc1ccc(NC(=O)c2oc3ccccc3c2NC(=O)Cc2ccc(F)cc2)c(OC)c1	-14.4%	-22.8%
CC1CCCC(NC(=S)NCc2ccc(F)cc2)C1C (stereo not given)	196.3%[activator]	11.1%
COc1ccc(Cl)cc1COc1ccc(C#N)cc1OC	10.5%	0.0%
CCOC(=O)Nc1ccc(S(=O)(=O)Nc2cccc(F)c2)cc1	91.0%[activator]	6.5%
CCO[C@H]1O[C@@H]2OC3(C)CC[C@H]4[C@H](C)CC[C@@H]([C@H]1C)[C@@]24OO3	-27.8%	-18.5%[11.5 µM]
Cc1ccccc1C(c1c(C)n(C)n(-c2ccccc2)c1=O)c1c(C)n(C)n(-c2ccccc2)c1=O	-7.3%	-3.9%
Cc1cccc(-c2nc(C#N)c(NCC(C)C)o2)c1	-2.5%	38.5%[activator]
CC(C)c1ccc(NC(=O)Cc2nn(C)c(=O)c3ccccc23)cc1	?	?
COc1ccc(N2CCN(C(=O)c3c4c(nc5ccccc35)C(=O)N(C3CCCCC3)C4)CC2)cc1	-12.9%	-4.1%
Cc1cc(C)c2c(C)c(C(=O)Nc3ccc4c(c3)N(C)C(=O)CO4)oc2c1	-1.8%	-5.3%
Cc1ccc2c(C)c(CCC(=O)NC3CCN(C)CC3)c(=O)oc2c1	-16.9%	-4.1%
O=C(COC(=O)c1cc2ccccc2[nH]1)NCc1ccc(F)cc1	2.4%	14.8%
COc1ccc(S(=O)(=O)c2c(C)c(C)n(Cc3ccccc3)c2NC(=O)C(C)C)cc1	73.8%[activator]	-15.2%

Four structures from above, sorted by count of non-hydrogen atoms, ascending:
SMILES	2A Renilla	2A firefly
CC(C)CCNCc1ccncc1	0.4%	-12.9%
COc1ccc(Cl)cc1COc1ccc(C#N)cc1OC	10.5%	0.0%
O=C(NCc1cccnc1)c1nn(-c2ccc(Cl)cc2)nc1CO	-8.6%	-13.6%
Cc1ccccc1C(c1c(C)n(C)n(-c2ccccc2)c1=O)c1c(C)n(C)n(-c2ccccc2)c1=O	-7.3%	-3.9%

(continued)
SMILES	2A Renilla	2A firefly
COCCCNC(=O)Cn1c(=O)nc(-c2ccccc2)c2ccccc21	8.0%	29.1%
Cc1nc2ccccc2c(C)c1CC(=O)N1CCC(C)CC1	-1.6%	0.0%
CCOc1ccc(S(=O)(=O)Nc2cccc(C)c2)c2cccnc12	62.6%[activator]	42.7%[activator]
Cc1[nH]n2c(=O)cc(-c3ccc(Cl)cc3)nc2c1-c1ccc(F)cc1	-22.2%	-7.4%
CCc1nn(C(C)C(=O)N2CCN(c3cccc(C(F)(F)F)c3)CC2)c(=O)c2cc3occc3n12 (stereo not given)	0.7%	-7.5%
Cc1cc(C(C)(C)C)cc(C)c1CS(=O)Cc1ccc(F)cc1 (stereo not given)	-1.3%	177.6%[activator]
O=C(Nc1ccccc1C(F)(F)F)c1nc2ccccc2nc1N1CCOCC1	-7.1%	3.1%
COc1ccc(NC(=O)CN(c2ccccc2Br)S(C)(=O)=O)cc1OC	-0.2%	-2.5%
O=C(N/N=C/c1cccc(Cl)c1)c1csc2ccccc12	33.4%	30.2%[activator]
Cc1ccc(OC(C)C(=O)N2CCC(c3nc4ccccc4o3)CC2)cc1C (stereo not given)	4.8%	17.3%
O=C(NC(c1ccccc1)c1cc2ccccc2o1)C1CCCC1 (stereo not given)	24.5%	7.8%
COc1ccccc1Cn1c(CNS(=O)(=O)c2ccc(Cl)s2)nc2cccnc21	151.0%[activator]	-1.1%
Cn1nc(-c2ccc(N3CCOCC3)c(NC(=O)c3ccccc3)c2)c2ccccc2c1=O	-13.6%	-13.6%
CCC(=O)C1=C(c2cccc([N+](=O)[O-])c2)N(C(=O)CC)n2c(nnc2C2CCCCC2)S1	0.7%	-19.9%
CN(C(=O)c1cccc(CS(C)=O)c1)C1CCC(c2ccccc2)CC1 (stereo not given)	-17.5%	-1.1%
Clc1ccc(CNCc2ccccc2Cn2cncn2)c(Cl)c1	-14.1%	4.5%
COc1ccc(C)cc1NC(=O)CSc1nc(=O)n(Cc2ccco2)c2c1CCC2	334.5%[activator]	36.1%[activator]
O=C(N/N=C/c1ccccc1OCCOc1ccc([N+](=O)[O-])cc1)Nc1ccccc1	6.8%	0.8%
CN1C(C(=O)Nc2ccc(F)cc2F)=CC(c2cccs2)=NS1(=O)=O	149.7%[activator]	28.9%
COc1ccc(-c2noc(-c3cccc(OCC(=O)N4CCCC4)c3)n2)cc1	-6.6%	161.3%[activator]
CCc1nnc(NC(=O)Cn2ccc3ccc(Cl)cc32)s1	3.6%	11.5%
COc1ccccc1/C=C1\Oc2cc(OS(=O)(=O)c3ccc(C)cc3)ccc2C1=O	-6.4%	0.1%
Cc1cc(C)c(S(=O)(=O)NCC(c2ccco2)N2CCN(c3ccccc3)CC2)c(C)c1 (stereo not given)	5.3%	-18.6%
O=C(N/N=C/c1ccc(N(c2ccccc2)c2ccccc2)cc1)C1CC1	?	?
CCc1ccc2oc(-c3cc(NC(=O)c4cc([N+](=O)[O-])ccc4N4CCOCC4)ccc3Cl)nc2c1	-3.9%	-0.3%
CCN(CC)c1ccc(C(=O)N2CCC(c3c[nH]c4ccccc34)(c3c[nH]c4ccccc34)CC2)cc1	-16.2%	-14.5%
Cc1ccc(C)c(CSc2nc3ccncc3n2CC(=O)Nc2ccc(N(C)C)cc2)c1	-16.1%	-14.5%
CCOc1ccc(C(=O)OCc2cc(=O)n3nc(C4CC4)sc3n2)cc1	-11.9%	11.9%

Not a retest: three of the compounds above.
SMILES	2A Renilla	2A firefly
O=C(COC(=O)c1cc2ccccc2[nH]1)NCc1ccc(F)cc1	2.4%	14.8%
COc1ccc(S(=O)(=O)c2c(C)c(C)n(Cc3ccccc3)c2NC(=O)C(C)C)cc1	73.8%[activator]	-15.2%
COCCCNC(=O)Cn1c(=O)nc(-c2ccccc2)c2ccccc21	8.0%	29.1%

Screening data (PubChem)
